# Compound activity as filed in PubChem BioAssay.
# Cruzain inh Det: inhibitors of Trypanosoma cruzi cruzain with detergent; P25779; purified cruzain, Z-FR-AMC fluorescence, 0.01% Triton; Potency, µM, for the others: max response, negative = inhibition, usual class: inhibitors; 200,000 tested, 0.43% active; active = well fitted curve in the direction sought with a large enough effect; inconclusive = small, poorly fitted or top-dose-only effect, or another doubt; inactive = no such curve, though single readings can be large; an effect the other way counts as inactive or inconclusive;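 note: plate controls were neutral wells for no effect and buffer without enzyme for full effect; nearly all actives have a fitted effect of over 40% in size; top concentration of the series not given in the record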
# Target sequence (P25779 123-467 limits assumed): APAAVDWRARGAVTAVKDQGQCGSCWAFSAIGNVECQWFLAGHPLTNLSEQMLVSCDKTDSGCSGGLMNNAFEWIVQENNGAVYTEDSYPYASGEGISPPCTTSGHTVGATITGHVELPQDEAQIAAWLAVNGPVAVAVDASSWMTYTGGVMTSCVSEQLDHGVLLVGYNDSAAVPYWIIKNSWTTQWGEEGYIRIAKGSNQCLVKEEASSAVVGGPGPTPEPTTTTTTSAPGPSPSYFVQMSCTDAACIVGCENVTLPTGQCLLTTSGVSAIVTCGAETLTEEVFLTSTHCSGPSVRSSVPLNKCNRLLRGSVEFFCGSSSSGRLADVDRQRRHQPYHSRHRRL
#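 Cysteine protease activity tested under reducing, mildly acidic conditions (100 mM sodium acetate pH 5.5, 5 mM DTT) plus 0.01% Triton X-100. Cruzain 1.5 nM; substrate Z-FR-AMC 2 uM; 15 min compound preincubation at room temperature.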
# StopGo reporter: lowers the luciferase signal of an FMDV 2A StopGo reporter | Potency, µM (highest dose often 57.9 µM), for the others: at the highest dose signal change, negative = less light | AID 1159524 | 410,000 tested, 1.2% active | human cells with a luciferase reporter of 2A StopGo recoding; control for the full effect not named in the record; active = well fitted falling curve with a large enough effect; inconclusive = small, poorly fitted or top-dose-only effect; inactive = no such curve, though single readings can be large or run the other way; tested in HEK293T cells; note: % is set by controls: 0 for no effect and ±100 for the full control effect; nearly all actives have a fitted effect of over 45% in size; luciferase light after 4 h
# Lassa entry inh: inhibitors of Lassa virus binding or cell entry; Lassa virus pseudotype entry inhibition, cell reporter; control for the full effect not named in the record; AID 540256; Potency, µM (highest dose often 37.9 µM), for the others: at the highest dose activity change, negative = inhibition, most hits filed as inhibitors; 300,000 tested, 1.2% active; active means well fitted inhibition curve with a large enough effect; inconclusive means small, poorly fitted or top-dose-only effect, or effect the other way; inactive means flat fitted curve, though single readings scatter; tested in HEK293 cells; note: % is set by controls: 0 for no effect and ±100 for the full control effect; nearly all actives have a fitted effect of over 50% in size; luciferase read-out
# RE007 growth inh: less growth of the S. pombe RE007 Vpr strain; S. pombe RE007 Vpr strain, BacTiter-Glo ATP luminescence, 24 h; control for the full effect not named in the record; Potency, µM (series often up to 92.2 µM), for inactives: top-dose activity change, negative = less growth; 360,000 tested, 0.21% active; AID 651644; active = well fitted falling curve with a large enough effect; inconclusive = small, poorly fitted or top-dose-only effect; inactive = no such curve, though single readings can be large or run the other way;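 note: % is set by controls: 0 for no effect and ±100 for the full control effect; nearly all actives have a fitted effect of over 50% in size; the assay follows cell death caused by Vpr and the record does not say whether a fall means rescue or toxicity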
#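 Fission yeast strain RE007, carrying one chromosomally integrated HIV-1 vpr copy, was seeded at OD 0.01 in PMG+AL medium with 23 nL pinned compound. After 24 h at 30 °C and 99% humidity, viability was read by BacTiter-Glo luminescence.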
# NS1 function inh: blocks influenza NS1 protein function. S. cerevisiae slowed by influenza A NS1, growth recovery by OD600. Potency, µM (titrated, usually from 46.1 µM), for the others: top-dose activity, positive = more growth. 270,000 tested, 0.4% active; note: actives are rising curves; nearly all actives have a fitted effect of over 50% in size
#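 Compounds were scored for reversing the slow growth caused by influenza A NS1 in S. cerevisiae, measured by optical density at 600 nm. Assay medium contained 2% galactose at pH 6.0; NS1-free yeast of the same strain were the positive control.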
# Cruzain noTriton: cruzain (T. cruzi) inhibition without detergent. AID 1476. purified cruzain, Z-FR-AMC fluorescence, no detergent. 200,000 tested, 2.3% active. Potency, µM, inactives show max response, negative = inhibition, actives largely listed as inhibitors; active = well fitted curve in the direction sought with a large enough effect; inconclusive = small, poorly fitted or top-dose-only effect, or another doubt; inactive = no such curve, though single readings can be large; an effect the other way counts as inactive or inconclusive;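 note: plate controls were enzyme without inhibitor for no effect and buffer without enzyme for full effect; nearly all actives have a fitted effect of over 40% in size; top concentration of the series not given in the record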
#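 Purified cruzain at 1.5 nM, pre-incubated 15 min with compound at room temperature in 100 mM sodium acetate pH 5.5, 5 mM DTT, 0.00005% Triton X-100. Reaction started with 2 uM Z-FR-AMC; AMC fluorescence increase over 60 s gives rate.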
# MARV entry inh: Marburg virus entry inhibition | Marburg virus pseudotyped entry inhibition, cell reporter; control for the full effect not named in the record; about a third of the inactives were read at about 46 µM | Potency, µM (doses to about 37.8 µM), for the others: at the top dose activity change, negative = inhibition, usual class: inhibitors | 300,000 tested, 1.8% active; active = well fitted inhibition curve with a large enough effect; inconclusive = small, poorly fitted or top-dose-only effect, or effect the other way; inactive = flat fitted curve, though single readings scatter; tested in HEK293 cells; about a fifth of its hits are not listed in these tables; note: % is set by controls: 0 for no effect and ±100 for the full control effect; luciferase read-out
# SARS PLpro yeast: blocks SARS-CoV papain-like protease in a yeast assay; S. cerevisiae expressing SARS-CoV PLpro, growth rescue; control for the full effect not named in the record; Potency, µM (series often up to 32.9 µM), without a hit: at the top dose activity, positive = growth rescue; 330,000 tested, 0.19% active; note: 0% is about no effect; nearly all actives have a fitted effect of over 55% in size; growth read by luminescence after 48 h
# An asterisk follows results filed as active; ? = inconclusive; · = not tested or not shown; & = joins results of further samples; [ ] = dose if it differs, or a comment. Unless noted, calls come from the whole dose curve; as a rule, active means well fitted rising curve with a large enough effect; inconclusive means small, poorly fitted or top-dose-only effect; inactive means no such curve, though single readings can be large or run the other way. Potency is the fitted concentration of half-maximal effect.
SMILES,Cruzain inh Det,StopGo reporter,Lassa entry inh,RE007 growth inh,NS1 function inh,Cruzain noTriton,MARV entry inh,SARS PLpro yeast
CC(C)N=C1SC(CC(=O)Nc2ccccc2)C(=O)N1C(C)C (stereo not given),·,-33%,6%,13%,-6%,·,-3%,-5%
O=C(CCC1CCCN(C(=O)c2ccc3c(c2)OCO3)C1)NCc1ccc(F)c(F)c1 (stereo not given),·,32%[activator],·,13%,-4%,·,·,-1%
[N-]=[N+]=NC[C@H](Cc1ccccc1)N1CC[C@@H](O)CCC1=O,·,-16%,·,-7%,23%,·,·,-1%
Nc1nnnn1CC(=O)OCc1cccc(Br)c1,3.9%,23%,9%,-11%,1%,-2%,1%&1%,-1%
O=S(=O)(c1ccccc1)N1CCC(N2CCN(c3ccccc3)CC2)CC1,0.2%,·,·,·,13%,-6%,-3%,3%
COc1ccc(C(=O)CSc2nnc(-c3ccoc3C)n2CC2CCCO2)cc1 (stereo not given),-8.4%,-12%,3%,-2%,?,0%,-2%,13%
O=C1NCC(Nc2ccc(Cl)cc2)C(=O)N1 (stereo not given),·,45%[activator],-4%[46.1 µM],-11%,·,·,-3%[46.1 µM],·
Cc1ccc2nc(NCCO)nc(-c3ccccc3)c2c1,-4.4%,-16%,-23%,1%,-35%,-9%,-15%,-3%
COc1ccccc1NC(=O)CSc1ccc(-c2ccc(-n3cccn3)cc2)nn1,·,-17%,0%,-5%,·,·,8%,-3%
Cc1c(NC(=O)CCC2CCCCC2)cc(C(=O)N2CCOCC2)cc1[N+](=O)[O-],·,-18%,?,4%,·,·,·,0%
COc1cc(C(=O)NCCc2ccc3c(c2)OCO3)cc(OC)c1OC,·,-2%,-23%[46.1 µM],-3%,·,·,-12%[46.1 µM],·
COC(=O)CCc1c(COC(C)=O)[nH]c(C(=O)OCc2ccccc2)c1C,·,-6%,·,16%,-2%,·,·,-2%
O=C1C(=O)N(CC2CCCO2)C(c2ccco2)/C1=C(/O)c1ccc(F)cc1 (stereo not given),·,26%,-16%,8%,7%,·,29%[46.1 µM],-1%
CC[n+]1c(/C=C/c2ccc(OC(C)=O)c(OC)c2)ccc2ccccc21,·,54%[activator],·,-16%,4%,·,·,-1%
CCCC(=O)Nc1ccc(S(=O)(=O)N2CCOCC2)cc1,1.9%,·,-14%,4%,-2%,2%,4%,24%
COc1ccc(/C=C/C2=Nc3ccccc3NC(C)(C)C2)cc1OC,·,-9%,·,-6%,-6%,·,·,-2%
COc1ccc(NC(=O)c2cc(C)nc3ccccc23)cc1S(=O)(=O)Nc1ccccc1Cl,-6.9%,23%,-18%,-3%,-3%,?,?,-6%
CCn1cc(CNC(=O)c2cccc([N+](=O)[O-])c2)c(C)n1,-1.3%,-25%,0%,9%,10%,-3%,5%,-25%
COCCCN1C(=O)C(O)=C(C(=O)c2ccco2)C1c1cccc(Br)c1 (stereo not given),-6.6%,·,3%,10%,-2%,-7%,2%,2%
Cc1nc2ccccc2c(=O)n1-c1cccc(O)c1,1.5%,9%,8%,6%,-3%,-2%,?,-1%
CC(=O)Nc1ccc(S(=O)(=O)N(C)CC(=O)OCC(=O)c2cc(C)n(-c3ccc4c(c3)OCO4)c2C)cc1,-4.1%,-17%,-17%,-5%,?,24%,-1%,6%
O=C(Cc1cccs1)N(Cc1cccs1)C1(C(=O)NC2CCCC2)CCCCC1,1.4%,?,5%,-17%,-2%,-22%,-30%,-17%
CCOc1ccc(C(=O)NCCc2cnc[nH]2)cc1OCC,·,-3%,-9%[46.1 µM],5%,-1%,·,7%[46.1 µM],2%
CCOc1ccc(NC(=O)CC2C(=O)N(c3ccccc3)C(=O)N2CCc2sccc2C)cc1 (stereo not given),-3.3%,3%,?,·,·,2%,-32%[46.1 µM],·
CC(=O)c1cccc(NC(=O)N2CCCC2C(=O)Nc2cccc(C)c2C)c1 (stereo not given),1.0%,-9%,3%,-19%,-1%,0%,16%,3%
# Next part
SMILES,Cruzain inh Det,StopGo reporter,Lassa entry inh,RE007 growth inh,NS1 function inh,Cruzain noTriton,MARV entry inh,SARS PLpro yeast
Cc1ccc(C(=O)CSc2nnc(-c3ccc4[nH]c(C)c(C)c4c3)o2)cc1C,3.7%,·,-14%,13%,4%,-6%,-30%,-13%
CCOC(=O)Cc1ccc(NC(=O)c2ccc(C(C)(C)C)cc2)cc1,3.6%,18µM*,13µM*,-8%,-8%,5%,13µM*,-18%
CCc1nn(CC(=O)NCCCN2CCCC2=O)c(=O)c2cc3sccc3n12,-0.8%,-2%,·,1%,0%,-9%,·,-4%
O=S(Cc1ccc(Br)cc1)Cc1nnc(SCc2ccc(Br)cc2)n1-c1ccccc1 (stereo not given),-1.8%,16µM*,?,5%,?,20%,?,-65%
Cc1c(/C=N\NC(=O)c2ccc(F)cc2)cnn1C,-5.2%,-1%,1%,4%,13%,11%,?,1%
COc1ccc(C/C(N)=N/OC(=O)Cc2ccccc2)cc1,3.8%,33%[activator],-16%,0%,-28%,-2%,-1%,5%
Cc1ccc(N2C(=O)C3N=NN(CC(=O)N4N=C(c5ccccc5)CC4c4ccccc4)C3C2=O)cc1 (stereo not given),·,-13%,·,-1%,·,·,?,-1%
CCCCCN(C(=O)CCC(=O)OCC(=O)N(CC)C1CCCCC1)c1c(N)n(CCCC)c(=O)[nH]c1=O,·,-12%,3%,8%,·,·,19%,-1%
CCn1c(O)c(N=N)c2ccccc21,·,1%,-12%,1%,·,·,3%[46.1 µM],-1%
COC(=O)/C=C1/SC(=NC(=O)c2ccccc2)NC1=O,-22%,?,2%,-4%,10%,1%,-4%,-10%
COc1ccccc1NC(=O)NCCN1CCCCC1,·,10%,·,3%,15%,·,·,-4%
Cc1ccc(NC(=O)CSc2n[nH]c(-c3cccnc3)n2)c(Br)c1,·,-13%,-21%,-14%,5%,·,?,-3%
COCCNC(=O)C(c1ccc(F)cc1)N(Cc1cccs1)C(=O)CCC(=O)Nc1ccccn1 (stereo not given),·,-6%,-12%,20%,-14%,·,5%[46.1 µM],0%
Cc1csc(=O)n1CC(=O)Nc1nc2ccccc2s1,·,15%,-2%,-10%,·,·,-22%,11%
COc1ccc(N(C(=O)c2ccc(Cl)cc2)C2=CC3CCC(C2)N3C)cc1 (stereo not given),3.3%,-1%,-19%,-9%,-10%,3%,-17%,-1%
COC(=O)Nc1ncc(CN2C(=O)c3ccccc3C2=O)s1,0.5%,26%,24%,-2%,11%,-6%,7%,3%
CSc1nc(C)c(CCOCc2ccc(F)cc2)c(=O)[nH]1,·,-5%,22%,4%,·,·,6%[46.1 µM],0%
NS(=O)(=O)c1ccc(N2C(=O)C(=O)/C(=C(/O)c3ccccc3)C2c2ccc(Cl)cc2)cc1 (stereo not given),·,23%,·,10%,?,·,·,1%
Cn1c(N)c(C(=O)COC(=O)/C=C/c2ccc(OC(F)F)cc2)c(=O)n(C)c1=O,·,?,-4%,21%,·,·,-18%[46.1 µM],-2%
O=C(NCc1ccccn1)C1CC(c2ccc(Cl)c(Cl)c2)=NO1 (stereo not given),1.7%,2%,-6%,7%,-4%,-2%,-17%,-5%
Cc1ccc(CNC(=O)CN2C(=O)CSc3c2c(C)nn3-c2ccccc2)cc1,-2.7%,-7%,-26%[46.1 µM],·,·,-15%,·,·
COC(=O)c1ccccc1N(C)S(=O)(=O)c1cc2c3c(c1)CC(=O)N3CCC2,0.3%,-11%,0%[46.1 µM],·,·,?,·,·
CCCC(=O)N1CCN(c2nc3ccc(CC)cc3s2)CC1,·,11%,·,-7%,-19%,·,·,-2%
CCOC(=O)c1cnn(C)c1NC(=O)c1ccc(Cl)cc1Cl,·,-9%,?,-7%,-6%,·,6%,0%
CCN1C(=NCc2ccccc2)N[C@@H](c2ccccc2)[C@H](C(=O)OC)[C@H]1C,·,-13%,·,-2%,-4%&-11%,·,-16%[14.2 µM],?
# Next records:
SMILES,Cruzain inh Det,StopGo reporter,Lassa entry inh,RE007 growth inh,NS1 function inh,Cruzain noTriton,MARV entry inh,SARS PLpro yeast
COC1=C(OC)c2ccccc2C(C(=O)O)N/C1=C(/C)Nc1ccncc1 (stereo not given),0.7%,-15%,-8%,0%,14%,-1%,4%,-4%
COc1ccc2c(c1)CCc1sc(NC(=O)c3ccc(C)cc3)nc1-2,-6.4%,-11%,-8%,-1%,9%,-8%,1%,0%
CC(C)(C)[C@H]1CCC(=O)N([C@H](CC#N)Cc2ccccc2)CC1,·,-16%,·,-5%,-13%,·,·,-7%
CC(=O)c1c(C)[nH]c(C(=O)CSc2nnc(C3CCCCC3)n2N)c1C,-2.9%,2%,-30%,-15%,5%,-3%,-59%,2%
O=C(Nc1ccc([N+](=O)[O-])cc1)Nc1cnccn1,·,-6%,·,-8%,-6%,·,·,-2%
Cc1sc2nc(CSC(C)C(=O)N3CCOCC3)[nH]c(=O)c2c1C (stereo not given),·,-1%,·,-3%,2%,·,·,7%
CCOc1ccc(C(C)=O)cc1N1C(=O)C2C3C=CC(O3)C2C1=O (stereo not given),1.1%,-25%,0%,?,-78%,7%,-25%,-41%
O=C(NS(=O)(=O)c1ccc(NC(=O)C2CCCO2)cc1)c1ccccc1 (stereo not given),0.0%,-18%,-16%,-5%,-4%,-7%,-2%,-7%
O=C(Nc1ccccc1C(=O)O)c1ccc(NC(=O)C2CC2)cc1,·,?,?,?,-5%,·,5µM*,-2%
Cc1occc1C(=O)N/N=C/c1c(O)ccc2ccccc12,·,53%[activator],?,-1%,-1%,·,3.5µM*,14%
O=[N+]([O-])c1cc(C(F)(F)F)cc([N+](=O)[O-])c1N1CCN(S(=O)(=O)c2ccccc2)CC1,-6.6%,?,-3%,30%,3%,-4%,-27%,11%
O=C1/C(=C\c2ccc([N+](=O)[O-])cc2)CCc2ccccc21,-2.8%,-28%,13%,-10%,0%,?,-1%,3%

# The order is random; overall some 4.6% were active at least once.
